Screens (PubChem BioAssay)
AID923 = qHTS Assay for Allosteric/Competitive Inhibitors of Caspase-1: Spectroscopic Profiling in AFC Spectral Region; compound fluorescence, AFC spectral region (405/520 nm); almost no hit is shown here; Potency, µM (doses to about 57.5 µM), for the others: at the highest dose fluorescence increase, usual class: activators; 75,000 tested, 1.1% active; AID 923, 2007; active means well fitted activation curve with a large enough effect; inconclusive means small, poorly fitted or top-dose-only effect;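 further: potency means the concentration at half of the fitted maximal effect; 0% is about no effect; scaled to a free AFC standard on each plate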
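Titrations up to 57 uM read every 20 sec for 3 min (405/520 nm) with 50 nM caspase 1 and 5 uM Ac-WEHD-AFC, pH 7.5 HEPES buffer. Fluorescence-vs-time intercept gave baseline, scaled against on-plate AFC standard.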
A647 autofl = qHTS Assay for Spectroscopic Profiling in A647 Spectral Region. max dye-equivalent concentration, M. Compound fluorescence, A647 channel (570/671 nm), Tris buffer. 59,000 tested, under 10 active. AID 592, 2007; active means above 1 µM dye equivalent; inconclusive means 0.1 to 1 µM; inactive means 0.1 µM or less;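 further: values scaled relative to a standard on each plate; highest value over a series up to 38 µM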
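Buffer was dispensed, compounds and Alexa 647 standards were pin-transferred, and plates sat 15 min at room temperature. Intensity at 570/671 nm was then converted to dye-equivalent concentration using the plate's A647 standard curve.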
A488 autofl = qHTS Assay for Spectroscopic Profiling in A488 Spectral Region | compound autofluorescence, A488 spectral region, dye equivalency; hits give high values | max dye equivalency, M | 59,000 tested, 0.1% active | AID 591, 2007; active = above 10 nM dye equivalent; inconclusive = 1 to 10 nM; inactive = 1 nM or less; about half of its hits are not listed in these tables;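 further: highest value over a series up to 38 µM; compound alone in buffer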
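Readout is A488 dye-equivalent concentration, calibrated by a per-plate six-point Alexa 488 series. Compounds in 100 mM Tris buffer pH 8.0 were incubated 15 min at room temperature. Plates were imaged using 480 nm excitation/540 nm emission filters.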
TSHR agonist = qHTS Assay for Agonists of the Thyroid Stimulating Hormone Receptor | Thyrotropin receptor (Homo sapiens), P16473 | HEK293-CNG-TSHR cells (CNG channel as cAMP sensor), membrane potential dye, cAMP | Potency, µM (titrated, usually from 57.1 µM), without a hit: top-dose activation, usual class: activators | 73,000 tested, 0.48% active; active = well fitted activation curve of enough size with the parental cells flat; inconclusive = any curve in the parental cells; inactive = parental cells flat and receptor cells flat or falling; further: potency means the concentration at half of the fitted maximal effect; % of control where 0% means no effect; weak receptor curves with flat parental cells got no call and are not listed
Target sequence (P16473 whole entry, looked up): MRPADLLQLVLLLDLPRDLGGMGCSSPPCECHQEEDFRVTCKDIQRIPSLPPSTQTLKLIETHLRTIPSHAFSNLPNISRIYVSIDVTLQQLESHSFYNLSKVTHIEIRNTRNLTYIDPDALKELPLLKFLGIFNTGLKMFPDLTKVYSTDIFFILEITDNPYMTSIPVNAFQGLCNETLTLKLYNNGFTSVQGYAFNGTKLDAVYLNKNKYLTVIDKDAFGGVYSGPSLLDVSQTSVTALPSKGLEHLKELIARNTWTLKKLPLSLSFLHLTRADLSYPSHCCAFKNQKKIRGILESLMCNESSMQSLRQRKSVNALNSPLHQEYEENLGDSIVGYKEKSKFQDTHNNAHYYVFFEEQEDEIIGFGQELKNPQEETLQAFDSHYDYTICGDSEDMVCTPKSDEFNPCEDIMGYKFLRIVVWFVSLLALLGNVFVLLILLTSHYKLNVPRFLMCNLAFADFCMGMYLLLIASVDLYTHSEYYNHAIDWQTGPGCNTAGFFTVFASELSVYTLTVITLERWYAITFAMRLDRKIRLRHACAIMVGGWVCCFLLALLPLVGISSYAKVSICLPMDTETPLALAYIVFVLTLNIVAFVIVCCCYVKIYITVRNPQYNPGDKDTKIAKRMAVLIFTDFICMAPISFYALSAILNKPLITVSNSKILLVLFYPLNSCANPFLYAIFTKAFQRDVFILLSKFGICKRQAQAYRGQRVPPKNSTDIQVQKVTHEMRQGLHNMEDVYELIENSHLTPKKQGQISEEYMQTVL
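HEK 293 cells stably expressing TSHR and a modified CNG channel, with CNG-only parental cells as counterscreen, were preloaded 60 min at room temperature with membrane potential dye containing 100 uM RO 20-1724. Compound exposure was 30 min, and depolarization was read as fluorescence at 590 nm.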
Resorufin fluor = qHTS Assay for Spectroscopic Profiling in Resorufin Spectral Region; Compound fluorescence, resorufin region 547/598 nm, buffer; hits give high values; max dye-equivalent concentration, M; 59,000 tested, 0.04% active; AID 588, 2007; active = above 10 nM dye equivalent; inconclusive = 1 to 10 nM; inactive = 1 nM or less; a few of its hits are not listed in these tables; further: highest value over a series up to 38 µM
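Tris 100 mM pH 8.0; compound added, 15 min RT; CCD imager read, ex 547 nm/em 598 nm; signal normalized to resorufin standard curve (six concentrations per plate) as dye-equivalent concentration.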
The depositor's hits bear a star; i = inactive; ? = inconclusive; / = no result given; [ ] = another dose, or the depositor's remark. Some of the compounds tested (hit frequency here may not be typical).

Values run as follows: AID923 | A647 autofl | A488 autofl | TSHR agonist | Resorufin fluor
- O=C(NCCN1CCOCC1)C1CCC(=O)N1Cc1ccccc1Cl (stereo not drawn)
    0.2% | 4.2e-09 | i | 0% | i
- Cc1ccc(C)c(-n2c(Cc3cc(=O)[nH]c(=O)[nH]3)nnc2SCC(=O)NCc2ccco2)c1
    2.9% | 4.7e-08 | i | 3% | i
- CC1CN(S(=O)(=O)c2ccccc2)CC(C)O1 (stereo not drawn)
    1.1% | 1e-09 | i | 2% | i
- CC1C(=O)CC(c2ccccc2)N(C)C1c1ccccc1 (stereo not drawn)
    1.5% | / | / | 25% | /
- CS(=O)(=O)Nc1ccc(S(=O)(=O)NCCc2ccccc2)cc1
    -0.5% | 7.3e-08 | i | 3% | i
- OCCNc1ncnc2ccc(Br)cc12
    0.0% | 2.8e-08 | i | 1% | i
- CS(=O)(=O)C1=C(O)C(=O)N(CCCC(=O)O)C1c1ccccc1F (stereo not drawn)
    1.0% | 3.8e-08 | i | 1% | i
- COc1cccc(C(=O)N2CCSC2=S)c1
    0.4% | / | / | -4% | /
- c1ccc(CNc2nc(-c3ccc4c(c3)OCO4)nc3ccccc23)cc1
    4.0% | 1e-09 | i | 14% | i
- CCCCn1c(CN(Cc2ccccc2)Cc2ccccc2)nc2c1c(=O)n(C)c(=O)n2C
    0.3% | 4.2e-08 | i | ? | i
- CCCC(=O)c1ccc(N2CCCCCC2)c(F)c1
    2.5% | / | / | 30% | /
- Nc1nc2ccccc2n1C(=O)CCc1ccccc1
    -0.7% | 5.6e-09 | i | 1% | i
- Cc1c(C(=O)N2CCOCC2)oc2ccc(S(=O)(=O)N3CCCCCC3)cc12
    -0.7% | 1e-09 | i | 0%[11.4 µM] | i
- CC(C)C[C@H](N)C(=O)O
    1.0%[11.5 µM] | 1e-09 | i | -3%[11.4 µM] | i
- Cc1ccccc1CSc1nnc(-c2ccco2)n1Cc1ccco1
    -0.5% | 1e-09 | i | ? | i
- Cc1cc(C)c(OCC(=O)Nc2cccc(NC(=O)c3ccco3)c2)c(Br)c1
    1.4% | / | / | ? | /
- Cc1ccccc1-c1nnc(SCC(=O)Nc2ccc(Cl)cc2)n1N
    0.3% | 2.6e-08 | i | -7% | i
- COc1ccc(-c2noc(CCC(=O)NCc3cccnc3)n2)cc1
    2.6% | 3.3e-09 | i | -7% | i
- COC(=O)c1[nH]c2ccc(C)cc2c1NC(=O)CN1CCN(c2ccc(F)cc2)CC1
    2.0% | 1e-09 | i | -3% | i
- CCCOC(=O)c1ccc(OC(=O)c2ccco2)cc1
    0.9% | / | / | -7% | /
- CC(C)(C)Nc1nc(SCc2ccccc2)nc(N2CCOCC2)n1
    0.6% | 1e-09 | i | 20% | i
- Cc1ccc(CS(=O)(=O)CCC(=O)N2CCOCC2)cc1
    1.4% | 3.8e-08 | i | -4% | i
- COc1ccc(S(=O)(=O)N2CCN(c3ccccc3OC)CC2)cc1OC
    0.5% | 2.9e-08 | i | ? | i
- COc1ccc(OC)c(C2C(C(C)=O)=C(O)C(=O)N2Cc2cccnc2)c1 (stereo not drawn)
    -3.6% | 6.9e-09 | i | / | i
- COc1ccc(NC(=O)C(CC(=O)O)Cc2ccccc2)cc1 (stereo not drawn)
    -1.3% | / | / | -9% | /
- Cc1cnn(-c2ccc3nnc(-c4ccc(Br)cc4)n3n2)c1
    0.5% | / | / | ? | /
- CS(=O)(=O)c1ccc(Cl)c(NC(=O)COC(=O)CNC(=O)c2ccc(Br)o2)c1
    -0.4% | 5.2e-08 | i | -2% | i
- CCOC(=O)C1=C(C)Nc2ncnn2C1c1ccccc1F (stereo not drawn)
    -1.1% | 3.4e-09 | i | 3% | i
- CCn1nnnc1SCC(=O)Nc1cccc(NC(C)=O)c1
    -0.6% | 4e-08 | i | 1%[11.4 µM] | i
- CC(C)(C)c1ccc2c(c1)OCC(C(=O)O)O2 (stereo not drawn)
    0.7% | 8.7e-09 | i | -9% | i
- CC(CCc1ccccc1)NC(=O)CSc1nccc(=O)[nH]1 (stereo not drawn)
    -0.9% | 1e-09 | i | 15% | i
- COc1cccc(C2C(C(N)=O)=C(C)Nc3nc(-c4ccccc4Cl)nn32)c1 (stereo not drawn)
    -1.1% | / | / | 2% | /
- Cc1cc(-n2c(C)cc(C(=O)CSc3ncnc4ccccc34)c2C)no1
    12% | 1e-09 | i | ? | i
- Cc1cc(C(C)(C)C)c(O)c(C(C)(C)C)c1
    -2.1% | / | / | 1% | /
- CCOC(=O)Nc1ccc2c(c1)N(C(=O)N1CCN(C)CC1)c1ccccc1S2
    -1.6% | 7.3e-09 | i | 2% | i
- CCN(CC)CCCC(C)n1c(-c2ccccc2)nc2c(NC3CCCCC3)nc(C)nc21 (stereo not drawn)
    -2.7% | / | / | ? | /
- CCN(CCCNC(=O)C1CCCN(S(=O)(=O)c2cnc[nH]2)C1)c1ccccc1 (stereo not drawn)
    -0.9% | / | / | -2% | /
- CCCCCCC(c1c(C)n(C)n(-c2ccccc2)c1=O)c1c(C)n(C)n(-c2ccccc2)c1=O
    -0.1% | 1.6e-09 | i | 10% | i
- COC(=O)CSc1nnc(CNC(=O)c2ccccc2OC)n1-c1ccc(OC)cc1
    1.8% | 3.9e-08 | i | 15% | i
- Cc1ccc(Cn2c(SCC(=O)NCc3ccco3)nc3ccsc3c2=O)cc1
    -0.2% | 1.9e-08 | i | ? | i
- COC(=O)c1ccc2c(=O)n(CCCCCC(=O)NCc3ccccn3)c(=O)[nH]c2c1
    0.8% | 1e-09 | i | 0% | i
- COc1ccc(-n2c(SCC(=O)N3CCCCC3)nnc2-c2cccnc2)cc1
    -0.9% | 1.2e-08 | i | 9% | i
- Cc1ccc(S(=O)(=O)Cn2nnnc2CN2CCN(C(=O)c3ccco3)CC2)cc1
    -0.8% | 1.5e-08 | i | 0% | i
- Cc1cccc(-c2c3c(=O)n(C)c(=O)n(C)c3cn2CCO)c1
    2.3% | 3.6e-09 | i | 5% | i
- COc1ccc(-c2cc3ccccc3oc2=O)cc1NC(=O)c1ccc(Br)o1
    8.6% | 2.3e-08 | i | ? | i
- Cn1c(=O)c2c(ncn2CC(=O)N2CCN(c3cccc(Cl)c3)CC2)n(C)c1=O
    0.9% | 2.8e-08 | i | -6% | i
- COc1ccccc1-c1cc(Nc2ccc(F)cc2)ncn1
    4.6% | 9.2e-09 | i | 4% | i
- Nc1ccc(CCNc2ncnc3c2ncn3[C@@H]2O[C@@H](CO)[C@H](O)[C@@H]2O)cc1
    -4.1% | 2.5e-08 | i | ? | i
- C/C(=C1/SC(N2CC(C)OC(C)C2)=NC1=O)c1ccccc1 (stereo not drawn)
    -0.5% | 1e-09 | i | 10% | i
- O=C(O)c1cc2c(ccc3ccccc32)o1
    1.1% | / | / | ? | /
- Cc1cc(=O)oc2n[nH]c(-c3ccccc3)c12
    0.7% | 4.5e-08 | i | 8% | i
- COc1ccc2oc(=O)c(C(=O)N3CCN(c4ccccc4F)CC3)cc2c1
    3.3% | 3.3e-08 | i | 13% | i
- CCOC(=O)N1CCN(C(=O)C(CC(C)C)NC(=O)C2CCCCC2)CC1 (stereo not drawn)
    0.9% | 2.7e-08 | i | 13% | i
- Cc1cc(C)n(/N=C/c2cccc(O)c2)c(=O)c1C(N)=O
    1.7% | / | / | -7% | /
- COc1ccc(OC)c(NS(=O)(=O)c2cccs2)c1
    0.5% | 1e-09 | i | 3% | i
- CCOC(=O)NCc1ccc2c(c1)cc(C)n2C
    6.5% | 2.6e-08 | i | 1% | i
- COc1ccccc1-c1nnc(SCC(=O)Nc2ccc(Cl)cc2Cl)o1
    1.5% | 3e-09 | i | 15% | i
- COc1ccc(CCN(Cc2cc3cccc(C)c3[nH]c2=O)C(=O)N2CCCC2)cc1OC
    0.8% | 2.2e-09 | i | 1% | i
- COC(=O)Cn1cnc2sc(C)c(S(=O)(=O)N3CCN(c4ccccc4OC)CC3)c2c1=O
    0.7% | 2.4e-09 | i | -2%[11.4 µM] | i
- O=C(O)C/C(=C\c1ccco1)C(=O)O
    3.7%[11.5 µM] | 1e-09 | i | ? | i

Remaining list, next part.
Values run as follows: AID923 | A647 autofl | A488 autofl | TSHR agonist | Resorufin fluor
- CN(C)c1ccc(C(c2nnnn2C(C)(C)C)N2CCN(C(=O)c3ccco3)CC2)cc1 (stereo not drawn)
    0.0% | 2e-08 | i | 5% | i
- CC(C)C(=O)Nc1cccc(-c2cn3ccsc3n2)c1
    -0.3% | 2.7e-08 | i | -2% | i
- CC(=O)N1CC=C2C(C#N)=C(N)C(C#N)(C#N)C(C)C2C1 (stereo not drawn)
    13% | 1e-09 | i | 2% | i
- CN(C)c1ccc(NC(=O)CN2CCN(CC(=O)Nc3ccc(F)cc3)CC2)cc1
    0.8% | 4.5e-09 | i | 8% | i
- O=C(CSc1n[nH]c(-c2cccnc2)n1)Nc1ccnc2ccccc12
    -2.7% | 2.8e-08 | i | 8% | i
- CCOC(=O)CSc1nnc(C2CCCCC2)n1C
    0.5% | 5.2e-08 | i | 6% | i
- O=C(c1cnn2ccccc12)N1CCc2ccccc21
    -0.1% | / | / | 0% | /
- O=C(O)c1cccc2c1C(=O)N(C1CCCCC1)C2
    -2.6% | / | / | 3% | /
- CC(C)(C)C1CCc2onc(C(=O)Nc3ccc(F)cc3F)c2C1 (stereo not drawn)
    -1.9% | 1.1e-08 | i | ? | i
- COC(=O)CN(c1ccc(C)c(Cl)c1)S(C)(=O)=O
    1.1% | / | / | 0%[11.4 µM] | /
- COc1ccccc1NC(=O)CSc1nnnn1-c1ccc2c(c1)OCO2
    1.3% | 9.1e-09 | i | 18% | i
- CCC(=O)Nc1c(-c2cccs2)c(=O)c2ccccc2n1C
    -0.7% | 2.3e-08 | i | 17% | i
- O=C(COC(=O)c1ccco1)Nc1ccccc1
    -2.3% | 1e-09 | i | -5% | i
- CCN(C(=O)Cn1c(=O)n2nc(CCn3nc(C)cc3C)nc2c2ccccc21)c1cccc(C)c1
    -0.3% | 2.3e-08 | i | 25% | i
- CN1C(=O)C(CC(=O)Nc2ccc3c(c2)Cc2ccccc2-3)N(C)C1=O (stereo not drawn)
    -0.2% | 1e-09 | i | -27% | i
- Nc1nc2ccccc2n1CCN1CCCC1
    0.9% | 7.8e-09 | i | 11% | i
- COc1ccccc1-c1nnn(CC#N)n1
    -0.1% | 5.3e-09 | i | 3% | i
- O=C(O)Cn1ccnc1[N+](=O)[O-]
    1.2%[11.5 µM] | 3.2e-08 | i | -3%[11.4 µM] | i
- Cc1cc(C(=O)CSc2nnc(-c3ccc(OC(F)F)cc3)o2)c(C)n1Cc1cccs1
    0.7% | 1.5e-08 | i | 3% | i
- O=C(Nc1ccccc1-c1ccccc1)NC1CCN(CC(=O)N2CCOCC2)CC1
    -0.1% | 1e-09 | i | -2% | i
- CSc1ccc(N2C(=O)NC3(CCCCC3)C2=O)cc1
    3.4% | 2.3e-08 | i | 2% | i
- CCCCOc1ccc(C(=O)N2CCCCCC2)cc1
    0.1% | 5e-09 | i | 21% | i
- COc1ccc(C2C(C#N)=C(N)OC3=C2C(=O)CCC3)c(OC)c1OC (stereo not drawn)
    0.0% | 1.1e-09 | i | -14% | i

Molecules shown so far containing a cyano group:
Values run as follows: AID923 | A647 autofl | A488 autofl | TSHR agonist | Resorufin fluor
- CC(=O)N1CC=C2C(C#N)=C(N)C(C#N)(C#N)C(C)C2C1 (stereo not drawn)
    13% | 1e-09 | i | 2% | i
- COc1ccccc1-c1nnn(CC#N)n1
    -0.1% | 5.3e-09 | i | 3% | i
- COc1ccc(C2C(C#N)=C(N)OC3=C2C(=O)CCC3)c(OC)c1OC (stereo not drawn)
    0.0% | 1.1e-09 | i | -14% | i
